From PubChem
Rce1 inhib – yeast Rce1p protease inhibitors, primary screen, biochemical, fluorescence, cell-free homogeneous; calls only; yeast membranes, quenched prenylated peptide cleavage fluorescence; 0.27% of 290,000 active; CAAX prenyl protease 2 (Saccharomyces cerevisiae (strain ATCC 204508 / S288c)), Q03530;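 active means fall in fluorescence gain of 50% or more versus controls, with final raw signal at or below 3038400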;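 further: plate controls were neutral control wells for no effect and wells lacking membranes for full effect; tested at 10 µM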
Target sequence (Q03530 whole entry, looked up): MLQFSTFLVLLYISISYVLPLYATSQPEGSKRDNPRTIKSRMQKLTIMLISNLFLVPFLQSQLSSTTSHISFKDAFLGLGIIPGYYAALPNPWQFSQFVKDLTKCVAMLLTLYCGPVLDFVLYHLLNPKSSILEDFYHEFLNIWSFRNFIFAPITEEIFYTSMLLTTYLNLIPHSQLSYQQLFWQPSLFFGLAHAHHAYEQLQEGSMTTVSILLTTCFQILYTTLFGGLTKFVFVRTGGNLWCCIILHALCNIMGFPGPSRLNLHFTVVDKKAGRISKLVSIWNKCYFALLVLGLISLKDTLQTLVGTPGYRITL
Yeast UUG start – modulators of yeast start codon fidelity, primary screen, whole organism, S. cerevisiae, single point, plate reader | S. cerevisiae UUG-firefly luciferase reporter, luminescence/redox ratio | AID 602363, 2012 | activity score, % at 18.7 µM | 0.13% of 350,000 active;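 active means replicate mean at a twofold rise or more, about +100% in these data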;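 further: firefly luciferase made from a UUG start codon reports start codon fidelity; reporter light over untreated wells divided by growth signal over untreated wells; some hits fall short of that in this replicate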
CSC inhib – cancer stem cell viability inhibitors, primary screen, luminescence; inhibition, % at 7.5 µM; AID 2717, 2010; cancer stem cell-like cells viability; 1.1% of 300,000 active;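 active means mean at 75% or more and at least half the replicates too; tested in HMLE shEcad cells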;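 further: 0% = median of negative and 100% = median of positive control wells; the first replicate is given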
eIF4H inh – human eIF4H binding inhibitors, primary screen, translation initiation inhibitor project, biochemical, uHTS, fluorescence polarization | Eukaryotic translation initiation factor 4H (Homo sapiens), Q15056 | eIF4H fluorescence polarization binding assay | inhibition, % at 35 µM | 0.94% of 290,000 active;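 active means 50% or more with normal probe brightness, or confirmed in later tests; about a fifth of its hits are not listed in these tables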;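 further: calls also rest on retests at 20 µM and on dose response follow-up; 0% = protein and probe with vehicle and 100% = probe without protein; strong numbers were not always called active; many hits fall short of the cut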
HIV Env fusion – inhibitors of HIV-1 Env-driven cell-cell fusion, primary screen, HeLa-JRFL effector, CEM21 target cells, luciferase. 1.1% of 360,000 active. AID 651610, 2012. inhibition, % at 12.3 µM;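 active means mean replicate inhibition score of at least 50 and every replicate individually at or above 50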;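 further: 0% = plate neutral controls and 100% = maraviroc near 300 nM; one replicate is shown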
MT1-MMP act inh – blockers of MT1-MMP proenzyme processing, primary screen, HT1080 RFP-PRO-GFP cells, GFP/RFP fluorescence | GFP/RFP ratio change, % at 20 µM | GFP/RFP ratio fluorescence, overnight; percent of plate control window, DMSO zero | Matrix metalloproteinase-14 (Homo sapiens), P50281 | 0.061% of 360,000 active;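 active means GFP/RFP ratio change of at least 30% with cell ATP level not reduced by more than half and red fluorescence within 50% of control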; further: strong numbers were not always called active
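Compound: 20 µM single dose, 1% DMSO / System: HT1080 RFP-PRO-GFP cells / Controls: DMSO and RFP-L50D-GFP cell wells / Read-out basis: GFP/RFP fluorescence ratio / Schedule: overnight compound exposure at 37 °C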
PABP polyA inh – PABP poly(A) RNA binding inhibitors, primary screen, biochemical, fluorescence polarization, uHTS; inhibition, % at 35 µM; 1% of 290,000 active;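 active means 50% or more with normal probe brightness, or confirmed in later tests; about a fifth of its hits are not listed in these tables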;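 further: calls also rest on retests at 20 µM and on dose response follow-up; controls were probe without protein and protein plus probe with vehicle; some compounds called inactive have numbers as strong as hits; many hits fall short of the cut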
Target sequence (P11940 whole entry, looked up): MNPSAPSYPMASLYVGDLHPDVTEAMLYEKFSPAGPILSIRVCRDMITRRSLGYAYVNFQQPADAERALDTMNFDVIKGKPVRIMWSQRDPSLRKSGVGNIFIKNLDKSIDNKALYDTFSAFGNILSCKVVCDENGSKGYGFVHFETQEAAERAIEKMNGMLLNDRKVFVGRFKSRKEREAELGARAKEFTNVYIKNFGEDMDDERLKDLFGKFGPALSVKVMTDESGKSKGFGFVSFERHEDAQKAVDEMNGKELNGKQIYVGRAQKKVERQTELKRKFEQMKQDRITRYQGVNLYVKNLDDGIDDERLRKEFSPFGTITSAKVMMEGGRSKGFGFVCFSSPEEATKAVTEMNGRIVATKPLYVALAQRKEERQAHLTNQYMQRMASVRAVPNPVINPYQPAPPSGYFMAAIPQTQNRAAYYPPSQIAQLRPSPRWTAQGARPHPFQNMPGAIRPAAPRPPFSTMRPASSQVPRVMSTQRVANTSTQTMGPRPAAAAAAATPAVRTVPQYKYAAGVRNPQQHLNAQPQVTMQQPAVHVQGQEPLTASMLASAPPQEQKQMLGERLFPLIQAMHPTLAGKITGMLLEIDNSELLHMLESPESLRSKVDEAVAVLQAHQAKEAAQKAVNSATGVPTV
MT1-MMP act inh RFP – second read-out of MT1-MMP act inh, no call of its own (marks repeat the call); RFP signal change, %; measured here: RFP expression control read;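 0 = vehicle wells; hits needed this value within 50% of zero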
Numbers without * were called inactive; i = inactive; . = no result given. An excerpt; count on the stated rates, not on these rows.

mol | Rce1 inhib | Yeast UUG start | CSC inhib | eIF4H inh | HIV Env fusion | MT1-MMP act inh | MT1-MMP act inh RFP | PABP polyA inh
CCOc1cc2c3c(c1)C1(Nc4ccccc4S1)C(=O)N3C(C)(C)CC2C (stereo not given) | i | 2 | -12 | -15 | 19 | -45 | -28 | -3
CCOc1cc(/C=C2\C(=N)N3N=C(C)SC3=NC2=O)ccc1OCCOc1cccc(OC)c1 | i | -13 | . | -3 | -8 | 0 | -7 | -4
COC(=O)c1ccc(C(=O)OC)c(NC(=O)CCC(=O)O)c1 | i | . | -16 | 14 | . | 2 | 4 | 5
Nc1cc(=O)[nH]c(SCC(=O)Nc2ccc3c(c2)CCC3)n1 | i | -14 | -14 | -16 | 5 | -5 | -4 | -2
O=C(CSc1nnc(-c2ccc(Br)cc2)n1C1CCCCC1)N1CCCC1 | i | -14 | -4 | 0 | 6 | -3 | 2 | -2
CC(C)(C)c1ccc(/C=C2\Oc3cc(OC(=O)N4CCOCC4)ccc3C2=O)cc1 | i | . | -8 | -6 | 23 | -8 | -13 | 20
COc1cc2oc(-c3ccc(O)cc3)cc(=O)c2c(O)c1OC | i | -7 | 18 | 6 | . | -11 | -13 | 20
C/C(=N\NC(=O)c1cccc(S(=O)(=O)N2CCOCC2)c1)c1ccc(O)cc1 | . | -10 | -7 | . | . | 1 | 1 | .
CCOc1ccc(NC(=O)N(CCC(C)C)C2CCN(C(C)=O)CC2)cc1 | i | -8 | . | 1 | -25 | 2 | 2 | 8
CC(C)C[C@@H](C(=O)NCc1ccco1)N1C(=O)N2CCc3c([nH]c4ccccc34)[C@@]2(C)C1=O | i | 0 | -6 | 3 | . | -3 | -9 | 2
C(=C\c1ccco1)/C=N/n1cnnc1 | i | -12 | 1 | 93* | 1 | -2 | 1 | 72*
Cc1ccc(S(=O)(=O)N2CCN(C(=O)NCc3ccc(C(=O)O)cc3)CC2)cc1 | i | -7 | -16 | 6 | -1 | -4 | -2 | 7
Cc1ccc(-c2nn(-c3ccccc3)cc2NC(=O)c2ccccc2)cc1 | i | -22 | 9 | 2 | -8 | -20 | -9 | 6
COc1ccc(OC(=O)c2cccc(S(=O)(=O)N3CCCC3)c2)cc1 | i | -9 | . | 2 | 13 | -2 | -1 | -10
CCOC(=O)C(C)n1cnc2c(nnn2-c2ccc(C)cc2)c1=O (stereo not given) | i | -6 | . | -7 | -25 | 4 | 3 | -4
CCOC(=O)c1[nH]c(C)c(C(=O)Nc2cc(Cl)ccc2C)c1C | i | -19 | 52 | -1 | . | 10 | -1 | 8
COc1ccc(OC)c(Nc2nc(=O)c3cccnc3s2)c1 | . | . | . | 9 | . | 2 | 6 | 9
COC(=O)C1=C2c3[nH]c4ccccc4c3CCN2C(=O)CC1 | i | -6 | -7 | . | . | 1 | 0 | .
CCc1ccc(C(C)NC(=O)c2cc(C)oc2C)cc1 (stereo not given) | i | -12 | 0 | 0 | -319 | 0 | 1 | 8
O=C(Nc1ccc(S(=O)(=O)Nc2nccs2)cc1)c1cc(-c2ccccc2Cl)nc2ccccc12 | i | . | . | 23 | . | 1 | -4 | -2
N#C/C(=C\c1ccco1)C(=O)NCC1CCCO1 (stereo not given) | i | 8 | -14 | 28 | -26 | -1 | 4 | -2
O=C(OCc1cccc(F)c1)c1ccc2c(c1)-c1ccccc1C2=O | i | -22 | 18 | -7 | -97 | 10 | -3 | 8
Cc1nnc(SCC(=O)N2CC(=O)Nc3ccccc32)n1C | i | . | -7 | 1 | . | 3 | 8 | -4
C/C(=N\NC(=O)c1cccc(Cl)c1)c1cccc(NC(=O)C(C)C)c1 | i | -19 | 5 | -4 | -110 | 5 | 10 | -5
CC(=O)Oc1ccc(C(=O)NCc2ccco2)cc1 | i | -21 | -9 | -6 | 12 | -1 | 0 | 0
CCOC(=O)c1c(C)oc2c(CN3CCN(C)CC3)c(Br)c(OC)c(O)c12 | i | -14 | . | -4 | -25 | -5 | 1 | 8
CCOc1ccc(S(=O)(=O)NCCC(=O)NCC(c2ccc(OC)cc2)N2CCCCC2)cc1 (stereo not given) | i | -2 | -14 | . | -17 | 3 | 0 | .
CCN1C(=O)C(=Cc2cccc(OC)c2Oc2ccc([N+](=O)[O-])cc2[N+](=O)[O-])SC1=S | i | -10 | 77* | -2 | -363 | -3 | -41 | -1
Oc1c(Br)cc(Br)cc1/C=N/NC(=S)N[C@H]1CC2C=CC1C2 (stereo not given in full) | i | -26 | 102* | 33 | 10 | 2 | -16 | 10
CN(Cc1ccc(Cl)cc1Cl)C(=O)CNC(=O)c1ccco1 | i | -35 | -6 | 7 | 2 | -1 | -2 | 13
CC(C)n1c(CCCO)nc2ccccc21 | i | 0 | -12 | 1 | -28 | -2 | 2 | 1
Cn1nc(C(C)(C)C)cc1N1C(=O)CCC1(C)C(=O)NCc1ccccc1 (stereo not given) | . | -9 | . | . | -11 | 6 | 6 | .
Cc1ccccc1C(=O)NC(=S)N(C)CCc1ccccn1 | i | . | -24 | 0 | -8 | -2 | 5 | -2
O=c1cc(CSc2ccc(Cl)cc2)nc(N2CCOCC2)[nH]1 | i | 5 | -13 | -6 | -26 | 3 | 4 | -1
COC(=O)N/N=C/c1cn(Cc2c(Cl)cccc2Cl)c2ccccc12 | i | . | -5 | 1 | . | -7 | -9 | -6
CCOc1ccc(OCCC(=O)Nc2ccc(F)cc2C)cc1 | i | -12 | 1 | -4 | 10 | -1 | -1 | -14
COc1cccc(S(=O)(=O)Nc2ccc3c(c2)C(=O)N(C)C[C@H](OC)[C@H](C)CN(Cc2ccccc2F)[C@@H](C)CO3)c1 | . | 12 | . | . | 0 | -3 | -8 | .
Cc1ccc(CC(=O)Nc2cccc([N+](=O)[O-])c2)cc1 | i | . | 1 | -3 | -13 | 3 | 2 | -8
O=C(Nc1nc(-c2ccc(Cl)cc2Cl)cs1)c1ccc(OCC2CCCO2)cc1 (stereo not given) | i | -13 | 51 | -15 | 10 | -17 | -31 | -2
CC(C)CN(C(=O)CSc1nnc2ccccn12)C1CCS(=O)(=O)C1 (stereo not given) | . | 1 | -1 | . | -35 | 5 | 0 | .
O=C(N/N=C/c1ccc(Cl)cc1)c1ccc2c(c1)OCO2 | i | -9 | 34 | -17 | -60 | -3 | -6 | 2
COC(=O)Cc1ccc(NC(=S)Nc2ccccn2)cc1 | i | . | 12 | -2 | -8 | 0 | -8 | -4
Cc1ccc(C(C)C)c(OCC(=O)NNC(=O)Cn2[nH]c(=O)c3ccccc3c2=O)c1 | . | -14 | . | . | -7 | 0 | 0 | .
Cc1ccc(C)c(OC(C)C(=O)Nc2nccs2)c1 (stereo not given) | i | -14 | 0 | 10 | -15 | -1 | 0 | -4
COc1cccc(/C=N/Nc2nccnc2Cl)c1O | . | . | . | 9 | -27 | -4 | -8 | -1
O=c1oc(CCCO)cc2ccc(C#Cc3cccnc3)cc12 | . | -14 | . | . | -21 | 2 | 2 | .
O=C(CCS(=O)(=O)c1ccccc1)Nc1ccccc1-c1nc2ccccc2s1 | i | . | 9 | -4 | 12 | 1 | 0 | 8
CC(=O)Nc1ccc(C(=O)NCC2CCCCC2)cc1 | i | 4 | -6 | 4 | 10 | 0 | 6 | -9
Cc1c(C(=O)NCc2ccccc2C(F)(F)F)sc(=O)n1Cc1ccccc1C#N | . | -12 | . | . | 14 | 3 | 1 | .
Cc1noc(C)c1COC(=O)c1ccccc1Oc1ccccc1 | i | 18 | 3 | -8 | -11 | 0 | -5 | -1
CC1CCCCN1C(=O)N[C@@H](Cc1ccccc1)C(=O)O (stereo not given in full) | i | -9 | 0 | -6 | -12 | 3 | 1 | -6
COc1ccc(Nc2ncccc2C(=O)Nc2ccccc2)cc1 | i | -22 | -6 | -2 | -172 | -8 | -7 | 1
S=C(Nc1cccc(Cl)c1Cl)N1CCC2(CC1)OCCO2 | i | . | 1 | -4 | 2 | -2 | 1 | 1
O=C(NCC1c2ccccc2CCN1C(=O)CN1C(=O)c2ccccc2C1=O)C1CCCCC1 (stereo not given) | i | 7 | . | -3 | . | 0 | 3 | -2
CCOCCn1c(=O)c2c(nc3n2CCN3c2ccc(CC)cc2)n(C)c1=O | i | -5 | 0 | . | 15 | 4 | -9 | .
Cc1nn(C)c(C)c1/C=C/C(=O)c1ccc(Cl)cc1Cl | i | . | -1 | -9 | 56* | 0 | -28 | 4
O=C(N/N=C/c1ccccn1)c1cc(C2CC2)nc2ccccc12 | i | -14 | 0 | -1 | . | 3 | 4 | 6
Cc1ccc2nc(NC(=O)CSc3nnc(C)c(=O)n3N)sc2c1 | i | -21 | -1 | 1 | . | -2 | 0 | -2
COc1ccc(NC(=O)C2=CC(c3ccc(C)cc3)=NS(=O)(=O)N2C)cc1 | i | -11 | -7 | 8 | . | 7 | -6 | 2
O=C(NCCN1CCN(c2ccccc2)CC1)Nc1cccc(Br)c1 | i | 7 | 1 | -14 | 26 | -3 | -5 | -13

Remaining list, next part:
Order of results: Rce1 inhib	Yeast UUG start	CSC inhib	eIF4H inh	HIV Env fusion	MT1-MMP act inh	MT1-MMP act inh RFP	PABP polyA inh
COc1ccc(CNC(=O)C2CCCN(S(=O)(=O)N3CCC(C)CC3)C2)c(OC)c1 (stereo not given)
    i	-17	7	-6	0	-4	-3	-8
CC1Cc2ccccc2N1C(=O)c1ccc(N2CCCC2)c([N+](=O)[O-])c1 (stereo not given)
    i	-15	1	3	4	3	-8	-2
CCN1CCN(c2ccc(N3CCN(S(=O)(=O)c4ccc(C)c([N+](=O)[O-])c4)CC3)nn2)CC1
    i	.	67	.	12	-4	-6	.
CCCCc1cc(=O)oc2cc(C)c(CN3CCCC3)c(O)c12
    i	-8	.	60*	-76	-12	7	62*

2 compounds drawn at random from those above:
Order of results: Rce1 inhib	Yeast UUG start	CSC inhib	eIF4H inh	HIV Env fusion	MT1-MMP act inh	MT1-MMP act inh RFP	PABP polyA inh
CC1Cc2ccccc2N1C(=O)c1ccc(N2CCCC2)c([N+](=O)[O-])c1 (stereo not given)
    i	-15	1	3	4	3	-8	-2
COc1ccc(CNC(=O)C2CCCN(S(=O)(=O)N3CCC(C)CC3)C2)c(OC)c1 (stereo not given)
    i	-17	7	-6	0	-4	-3	-8

Full records, looked up by structure. Values in the order: Rce1 inhib | Yeast UUG start | CSC inhib | eIF4H inh | HIV Env fusion | MT1-MMP act inh | MT1-MMP act inh RFP | PABP polyA inh
Entry for `COc1ccc(CNC(=O)C2CCCN(S(=O)(=O)N3CCC(C)CC3)C2)c(OC)c1` (stereo not given) = i | -17 | 7 | -6 | 0 | -4 | -3 | -8
Entry for `CCN1CCN(c2ccc(N3CCN(S(=O)(=O)c4ccc(C)c([N+](=O)[O-])c4)CC3)nn2)CC1` = i | . | 67 | . | 12 | -4 | -6 | .
